HCMV NEC inh – cytomegalovirus nuclear egress complex inhibition | HTRF UL50-UL53 interaction, normalized percent inhibition | inhibition, % (concentration not given with the values) | actives 0.15% (n = 190,000);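 active means both replicates at 50% or more, plus weaker picks with an unusually low signal ratio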;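 further: stock transfer was 100 nL into about 20 µL; 0% = negative control wells and 100% = wells with untagged competitor protein; inactives centre near -12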
Sa growth inh – inhibitors of Staphylococcus aureus growth at 42 °C. S. aureus RN4220 growth, OD600, 20 h; active compounds read low. relative growth, % (test concentration not listed). actives 0.53% (n = 170,000). AID 720641;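 active means growth at 42 °C up to 50% and 20 or more points under that at 30 °C, or under 10% at both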;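 further: 300 nL library stock went into each well; scaled to the means of positive and negative controls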
GIV Gai3 FP – blocks GIV peptide binding to rat Galpha-i3. Galpha-i3/FITC-GIV peptide fluorescence polarization, 90 min; active compounds read low; scaled: aluminum fluoride 0%, vehicle 100%. percent of control (FP), % (no concentration beside the values). actives 0.42% (n = 210,000). AID 1224905;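 active means replicate mean at 85% of control or lower, very high polarization wells dropped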;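 further: wells of about 15 µL received 100 nL stock; the first replicate is given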
Target sequence (P08753 whole entry, looked up): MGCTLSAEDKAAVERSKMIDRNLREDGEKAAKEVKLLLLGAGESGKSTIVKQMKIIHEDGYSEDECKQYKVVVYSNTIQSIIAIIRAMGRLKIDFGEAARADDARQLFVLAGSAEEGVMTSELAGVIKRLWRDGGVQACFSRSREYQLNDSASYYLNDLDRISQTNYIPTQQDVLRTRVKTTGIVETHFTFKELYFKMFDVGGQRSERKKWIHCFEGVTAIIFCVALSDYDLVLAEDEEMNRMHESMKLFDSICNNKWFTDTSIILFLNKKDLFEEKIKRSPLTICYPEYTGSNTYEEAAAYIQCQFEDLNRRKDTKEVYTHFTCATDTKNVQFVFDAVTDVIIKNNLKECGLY
Sa growth inh second temp – recorded beside Sa growth inh, whose call it bears; relative growth, %; measured here: growth at 30 °C;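 optical density after 20 h as mean of two plates; 100% = untreated growth and lower means inhibition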
* marks the source's active call; other numbers are inactive results; / = not tested or not shown; & = joins results of further samples. The order is random, and some 0.8% of all compounds hit somewhere here.

cpd | Molecule | HCMV NEC inh | Sa growth inh | Sa growth inh second temp | GIV Gai3 FP
1 | O=C(Nc1nc2ccccc2[nH]1)C1CCCC1 | -2 | 114 | 93 | /
2 | C/C(=N/NC(=O)CSc1nc2ccccc2[nH]1)c1ccncc1 | -23 | 84 | 84 | 101
3 | O=S(=O)(NCc1ccc(Cl)cc1)c1ccc(-c2cnc(C3CC3)o2)cc1 | / | 108 | 90 | 99
4 | CCCNC(=O)CCc1nnc2ccc(N3CCC(C)CC3)nn12 | -1 | 93 | 104 | 107
5 | O=C(CSc1nc2ccccc2c2nc3ccccc3n12)NCc1ccco1 | / | 99 | 71 | 107
6 | Cc1ccccc1CSCC(=O)Nc1ccc(O)cc1C(=O)O | -24 | 92 | 98 | 102
7 | CN1CCCc2cc(SC#N)ccc21 | -8 | 70 | 32 | 101
8 | Cc1ccc(S(=O)Cc2nc(-c3ccc(C(=O)NCc4cccc(C)c4)cc3)oc2C)cc1 (configuration not stated) | / | 109 | 98 | 115
9 | CCn1c(O)c(C2=c3cc(Cl)ccc3=NC2=O)c2ccccc21 | -17 | 93 | 79 | /
10 | CC(=O)N1CC(C(=O)N2CCN(S(=O)(=O)c3ccccc3C#N)CC2)Oc2ccccc21 (configuration not stated) | -10 | 91 | 96 | /
11 | N#CSCOC(=O)Oc1ccc2ccccc2c1 | -23 | 63 | 50 | 100
12 | O=C(O)c1nn(CC2CCCCC2)c(=O)c2ccccc12 | -3 | 112 | 93 | /
13 | Cc1cccc(NC(=O)Cn2cc(C(=O)c3ccco3)c3ccccc32)c1 | 4 | 107 | 99 | 109
14 | CCOC(=O)/C=C1/CSc2ccccc2N1 | -15 | 96 | 94 | 106
15 | COc1cccc(-c2nnc(SCC(=O)N3CCCCC3)o2)c1 | 6 | 105 | 83 | 110
16 | CCC(C)NC(=O)c1cnn2c(C)cc(C)nc12 (configuration not stated) | 1 | 113 | 92 | 109
17 | COc1ccc(N2CCN(c3ncnc4c3nnn4C)CC2)cc1 | / | 107 | 95 | 98
18 | Cc1cccc(C2CC(=O)Nc3c2c(C)nn3-c2nc(C)cc(C)n2)c1 (configuration not stated) | 6 | / | / | 103
19 | CC(C)COC(=O)Nc1cccnc1 | -13 | 113 | 92 | /
20 | CC(C)(C)C1CCc2nc(NC(=O)c3ccc([N+](=O)[O-])cc3)sc2C1 (configuration not stated) | 0 | 95 | 51 | 102
21 | O=C(CCS(=O)(=O)c1cccc2nonc12)Nc1nccs1 | -32 | 96 | 86 | 98
22 | CCc1ccc(/C=N\N2CCN(c3ccccc3)CC2)cc1 | -23 | 89 | 87 | 101
23 | Cc1nnc(C(=O)Nc2cccc(C(=O)N3CCN(c4ccccn4)CC3)c2)s1 | -4 | / | / | 109
24 | CC(OC(=O)C1=COCCO1)C(=O)Nc1ccccc1C#N (configuration not stated) | -7 | 101 | 97 | /
25 | COC(=O)c1ncn2c1C(=O)N(Cc1ccc(OC)cc1)C(C)(C(=O)NC1CCCCC1)C2 (configuration not stated) | -33 | / | / | 106
26 | Cc1cc(S(=O)(=O)NN(C)c2cccc(Cl)c2C#N)cc(C)c1F | 1 | 112 | 101 | 109
27 | O=S(=O)(NC1CCCCC1)c1ccc(-c2nnc(C3CCC3)o2)s1 | -34 | / | / | 101
28 | CN(C(=O)COC(=O)c1ccc(Br)cc1)C1CCCCC1 | -9 | 103 | 88 | /
29 | O=C(CSc1ccc(Cl)cc1)Nc1ccc(NC(=O)c2ccco2)cc1 | -37 | 109 | 86 | /
30 | Cc1cc(C)c2c(c1)-c1c(ssc1=S)C(C)(C)N2C(=O)CSc1nncn1C | -108 | / | / | 99
31 | Cc1nnsc1C(=O)NCc1ccc(F)cc1 | -20 | 103 | 92 | 101
32 | O=C(O)c1ccccc1C1Nc2ccccc2S(=O)(=O)N1Cc1ccccc1 (configuration not stated) | -4 | 110 | 93 | /
33 | Cc1nn(CCCC(=O)NCCc2ccc(Cl)cc2)c(=O)c2c1sc1ccccc12 | -22 | 77 | 86 | 108
34 | Nc1c(-c2ccccc2)nnn1-c1ccccc1 | / | 114 | 82 | 104
35 | COc1ccccc1N1CCN(S(=O)(=O)c2ccc(S(N)(=O)=O)cc2)CC1 | 3 | 90 | 85 | 102
36 | CCOC(=O)c1cc(-c2ccc(S(=O)(=O)N3CCCCC3)s2)on1 | -33 | 98 | 91 | 101
37 | CNC(=O)Cn1cccc1C(=O)c1ccccc1C | / | 99 | 88 | 103
38 | CC(=O)Nc1ccccc1OCC(O)CS(=O)(=O)Cc1ccc(Cl)cc1 (configuration not stated) | -2 | 102 | 99 | 101
39 | N#CC1=C(N)OC2=C(C(=O)CCC2)C12CCCC2 | -8 | 101 | 81 | 102
40 | CCCn1c(=O)c2ccccc2n2c(=O)n(CC(=O)NC3CCCCC3)nc12 | -25 | / | / | 109
41 | CC(C)CN(CC(C)C)S(=O)(=O)c1ccc(C(=O)Nc2nc3c(s2)CC(C)CC3)cc1 (configuration not stated) | -20 | / | / | 94
42 | CCOc1ccc(NC(=O)Cn2cc(C(=O)c3ccc(C)c(C)c3)c(=O)c3cc(OC)c(OC)cc32)cc1 | -17 | 103 | 90 | 99
43 | CCc1cc(C(Nc2cccc(C)n2)c2ccsc2)c(NC(=O)c2ccccc2)s1 (configuration not stated) | 3 | / | / | 109
44 | Cc1nnc(SCCOc2ccccc2Cl)[nH]c1=O | -30 | 63 | 56 | /
45 | COC(=O)c1cn(NC(=O)CSc2ccncc2)c(=O)c2ccccc12 | -2 | 106 | 93 | 103
46 | O=C(Nc1ccc2sc(NC(=O)c3ccc(Cl)cc3)nc2c1)c1ccc(Cl)cc1 | -3 | / | / | 102
47 | OCC#CCSc1ncnn1-c1ccccc1 | -16 | 90 | 86 | 99
48 | CSc1cccc(NC(=O)CSc2ncccc2C(=O)OC(C)C)c1 | / | 85 | 74 | 104
49 | O=C(CSc1nc2ccccc2c(=O)n1Cc1ccco1)N1CCc2ccccc21 | -16 | 99 | 93 | /
50 | O=C(NC1CCCCC1)c1ccc(CN2C(=O)CCn3nc(-c4ccc(Cl)cc4)cc32)cc1 | 3 | / | / | 103
51 | COc1ccc(NC(=O)C(C)n2nnc3sc(-c4ccccc4)cc3c2=O)cc1Cl (configuration not stated) | -18&-14 | 93 | 91 | 98&112
52 | Cc1nc2ccccc2n1CCO | -3 | 96 | 90 | 97
53 | CCOC(=O)C1=NN(c2ccccc2)C(=O)/C1=C\c1ccc(N(C)C)cc1 | -2 | 102 | 104 | 109
54 | Cc1cccc(CN2CCCC2CO)c1 (configuration not stated) | -15 | 99 | 109 | 106
55 | O=C(Nc1ccc2c(c1)CCC2)c1ccccn1 | -6 | 84 | 86 | /
56 | C=C1c2ccccc2NC(=S)N1C | -14 | 117 | 99 | /
57 | CCc1cccc(CC)c1NC(=O)COC(=O)Cc1ccsc1 | -26 | 117 | 85 | /
58 | NC(=O)NC(=O)Cc1nc2ccccc2s1 | -11 | 101 | 51 | 106
59 | Cc1ccc(NC(=O)C2CCN(c3nccn4nc(-c5ccccc5)cc34)CC2)cc1 | -8 | / | / | 106
60 | CCS(=O)(=O)c1ccc2oc(SCC(=O)Nc3ccc(OC)cc3OC)nc2c1 | -16 | 97 | 92 | /

The results go on.
cpd | Molecule | HCMV NEC inh | Sa growth inh | Sa growth inh second temp | GIV Gai3 FP
61 | CC1CCCCN1CCNC(=O)c1ccc2c(c1)N(Cc1ccccc1F)C(=O)c1ccccc1S2=O (configuration not stated) | 0 | 87 | 76 | 104
62 | COc1ccccc1CNC(=O)c1ccc2cn[nH]c2c1 | -10 | / | / | 107
63 | COc1ccccc1/C=C/c1nc(C#N)c(N2CCN(c3ccccc3)CC2)o1 | -2 | 90 | 92 | 109
64 | COc1ccccc1N1CCN(S(=O)(=O)c2c(C)sc3ncn(CC(=O)Nc4cccc(Cl)c4)c(=O)c23)CC1 | 0 | 77 | 95 | 104
65 | CCNc1cc(N2CCN(Cc3ccc(OC)c(OC)c3OC)CC2)c2noc3c2c1C(=O)c1ccccc1-3 | -62 | 99 | 79 | 171
66 | CCc1ccc(C(=O)NC(=O)c2ccccc2O)cc1 | 20 | 95 | 79 | 100
67 | CCCC(=O)Nc1c(C(=O)OCC)[nH]c2ccc(F)cc12 | -18 | / | / | 95
68 | Cc1ccc(Cl)cc1NC(=O)CCN1C(=O)c2ccccc2Sc2ncccc21 | / | 98 | 85 | 107
69 | Cc1cccc(CSc2cn(CC(=O)N3CCOCC3)c3ccccc23)c1 | / | 135 | 91 | 105
70 | O=C(C1CCCN(c2ccnc(-c3ccc(F)cc3)n2)C1)N1CCN(Cc2ccccc2)CC1 (configuration not stated) | -29 | / | / | 109
71 | CCC(=O)n1nc(-c2ccco2)nc1SC | / | 84 | 89 | 101
72 | CSc1nc(C(N)=O)cc(=O)[nH]1 | -12 | 114 | 95 | 100
73 | CC1CCN(C(=O)Cn2cc(SCC(=O)N3CCCc4ccccc43)c3ccccc32)CC1 | -8 | / | / | 105
74 | O=S(=O)(Cc1noc(-c2ccno2)n1)Cc1ccco1 | -27 | 94 | 89 | 104
75 | COc1ccc(OC)c(CCNC(=O)CS(=O)(=O)Cc2nc(-c3cccc(Cl)c3)oc2C)c1 | -18 | 91 | 66 | 104
76 | Cc1ccc(C(=O)CSC2=NCCCCC2)cc1 | -26 | 75 | 78 | 97
77 | O=C(Cn1cc(S(=O)(=O)Cc2ccccc2F)c2ccccc21)NCc1ccccc1 | / | 90 | 93 | 99
78 | Cc1ccc(NC(=S)N(Cc2c[nH]c3ccccc23)C(C)C)cc1C | / | 93 | 54 | 104
79 | Cc1c(Cl)cccc1NC(=O)Cn1c(=O)n(Cc2nc(-c3ccccc3)no2)c(=O)c2cc3c(cc21)OCO3 | / | 97 | 102 | 102
80 | CCN=C1S/C(=C\c2cn(CC(=O)NCCOC)c3ccccc23)C(=O)N1CC | -6 | 94 | 110 | 103
81 | OC(c1cccc(C(F)(F)F)c1)c1nnc(-c2ccccc2)o1 (configuration not stated) | -7 | 105 | 87 | /
82 | O=C(Nc1nc2c(F)cc(F)cc2s1)c1ccc2c(c1)OCCO2 | / | 99 | 84 | 104
83 | COCCOc1ccc(C(F)(F)F)cc1NC(=O)c1ccc2c(=O)n3c(nc2c1)CCC3 | 0 | 92 | 92 | /
84 | COC(=O)c1cc(S(=O)(=O)Nc2ccsc2C(=O)OC)oc1C | -18 | 101 | 90 | 99
85 | CCOC(=O)COc1nc(-c2cccs2)cc(C(F)(F)F)n1 | -8 | 109 | 88 | /

By substructure: the compounds so far with fluorine.
cpd | Molecule | HCMV NEC inh | Sa growth inh | Sa growth inh second temp | GIV Gai3 FP
26 | Cc1cc(S(=O)(=O)NN(C)c2cccc(Cl)c2C#N)cc(C)c1F | 1 | 112 | 101 | 109
31 | Cc1nnsc1C(=O)NCc1ccc(F)cc1 | -20 | 103 | 92 | 101
61 | CC1CCCCN1CCNC(=O)c1ccc2c(c1)N(Cc1ccccc1F)C(=O)c1ccccc1S2=O (configuration not stated) | 0 | 87 | 76 | 104
67 | CCCC(=O)Nc1c(C(=O)OCC)[nH]c2ccc(F)cc12 | -18 | / | / | 95
70 | O=C(C1CCCN(c2ccnc(-c3ccc(F)cc3)n2)C1)N1CCN(Cc2ccccc2)CC1 (configuration not stated) | -29 | / | / | 109
77 | O=C(Cn1cc(S(=O)(=O)Cc2ccccc2F)c2ccccc21)NCc1ccccc1 | / | 90 | 93 | 99
81 | OC(c1cccc(C(F)(F)F)c1)c1nnc(-c2ccccc2)o1 (configuration not stated) | -7 | 105 | 87 | /
82 | O=C(Nc1nc2c(F)cc(F)cc2s1)c1ccc2c(c1)OCCO2 | / | 99 | 84 | 104
83 | COCCOc1ccc(C(F)(F)F)cc1NC(=O)c1ccc2c(=O)n3c(nc2c1)CCC3 | 0 | 92 | 92 | /
85 | CCOC(=O)COc1nc(-c2cccs2)cc(C(F)(F)F)n1 | -8 | 109 | 88 | /

Assay outcomes: PubChem BioAssay, ICCB-Longwood Screening Facility, Harvard Medical School
